Compound activity from PubChem BioAssay.
Rce1 inh: yeast Rce1p protease inhibitors, primary screen, biochemical, fluorescence, cell-free homogeneous; yeast membranes, quenched prenylated peptide cleavage fluorescence; calls only; hit rate 0.27% among 290,000; CAAX prenyl protease 2 (Saccharomyces cerevisiae (strain ATCC 204508 / S288c)), Q03530;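 active = fall in fluorescence gain of 50% or more versus controls, with final raw signal at or below 3038400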;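 note: plate controls were neutral control wells for no effect and wells lacking membranes for full effect; tested at 10 µM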
Target sequence (Q03530 whole entry, looked up): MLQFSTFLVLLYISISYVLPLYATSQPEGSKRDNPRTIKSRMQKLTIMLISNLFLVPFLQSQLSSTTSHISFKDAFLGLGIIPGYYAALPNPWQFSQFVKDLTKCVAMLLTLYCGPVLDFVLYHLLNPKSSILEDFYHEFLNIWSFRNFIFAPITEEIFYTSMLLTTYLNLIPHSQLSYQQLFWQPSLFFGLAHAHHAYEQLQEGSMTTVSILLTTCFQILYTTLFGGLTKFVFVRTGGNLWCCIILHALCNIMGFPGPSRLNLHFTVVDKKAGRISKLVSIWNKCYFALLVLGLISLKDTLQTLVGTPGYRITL
PABP polyA inh: PABP poly(A) RNA binding inhibitors, primary screen, biochemical, fluorescence polarization, uHTS; Polyadenylate-binding protein 1 (Homo sapiens), P11940; AID 2014, 2009; hit rate 1% among 290,000; inhibition, % at 35 µM;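 active = 50% or more with normal probe brightness, or confirmed in later tests; about a fifth of its hits are not listed in these tables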;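 note: calls also rest on retests at 20 µM and on dose response follow-up; controls were probe without protein and protein plus probe with vehicle; some compounds called inactive have numbers as strong as hits; many hits fall short of the cut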
eIF4H inh: human eIF4H binding inhibitors, primary screen, translation initiation inhibitor project, biochemical, uHTS, fluorescence polarization; inhibition, % at 35 µM; hit rate 0.94% among 290,000; eIF4H fluorescence polarization binding assay;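 active = 50% or more with normal probe brightness, or confirmed in later tests; about a fifth of its hits are not listed in these tables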;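 note: calls also rest on retests at 20 µM and on dose response follow-up; 0% = protein and probe with vehicle and 100% = probe without protein; strong numbers were not always called active; many hits fall short of the cut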
MT1-MMP act inh: blockers of MT1-MMP proenzyme processing, primary screen, HT1080 RFP-PRO-GFP cells, GFP/RFP fluorescence; GFP/RFP ratio change, % at 20 µM; hit rate 0.061% among 360,000; Matrix metalloproteinase-14 (Homo sapiens), P50281; GFP/RFP ratio fluorescence, overnight; percent of plate control window, DMSO zero; AID 651647, 2012;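 active = GFP/RFP ratio change of at least 30% with cell ATP level not reduced by more than half and red fluorescence within 50% of control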; note: strong numbers were not always called active
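Assay system: HT1080 RFP-PRO-GFP cells. Benchmarks: DMSO vehicle wells and RFP-L50D-GFP reporter cell wells. Times: overnight cell settling, then overnight compound exposure, 37 °C, 5% CO2. Compound: 20 µM single dose, 1% DMSO. Read-out basis: GFP/RFP fluorescence ratio.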
Yeast UUG start: modulators of yeast start codon fidelity, primary screen, whole organism, S. cerevisiae, single point, plate reader; S. cerevisiae UUG-firefly luciferase reporter, luminescence/redox ratio; activity score, % at 18.7 µM; hit rate 0.13% among 350,000; AID 602363, 2012;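 active = replicate mean at a twofold rise or more, about +100% in these data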;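 note: firefly luciferase made from a UUG start codon reports start codon fidelity; reporter light over untreated wells divided by growth signal over untreated wells; some hits fall short of that in this replicate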
CSC inhib: cancer stem cell viability inhibitors, primary screen, luminescence; cancer stem cell-like cells viability; inhibition, % at 7.5 µM; hit rate 1.1% among 300,000;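 active = mean at 75% or more and at least half the replicates too; tested in HMLE shEcad cells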;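 note: 0% = median of negative and 100% = median of positive control wells; the first replicate is given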
HIV Env fusion: inhibitors of HIV-1 Env-driven cell-cell fusion, primary screen, HeLa-JRFL effector, CEM21 target cells, luciferase. inhibition, % at 12.3 µM. hit rate 1.1% among 360,000. AID 651610, 2012;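 active = mean replicate inhibition score of at least 50 and every replicate individually at or above 50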;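 note: 0% = plate neutral controls and 100% = maraviroc near 300 nM; one replicate is shown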
eIF4H inh retest: also measured in eIF4H inh; calls as there; inhibition, %; compound at 20 µM; confirmation average;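 mean of two retest wells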
PABP polyA inh retest: recorded beside PABP polyA inh, whose call it bears; inhibition, %; compound at 20 µM; confirmation repeats;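 mean of two retest wells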
MT1-MMP act inh RFP: also measured in MT1-MMP act inh; calls as there; RFP signal change, %; measured here: RFP expression control read;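 0 = vehicle wells; hits needed this value within 50% of zero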
* = called active by the depositor; i = inactive; / = not tested or not shown; & = joins results of further samples; [ ] = dose if it differs, or a comment.

SMILES	Rce1 inh	PABP polyA inh	eIF4H inh	MT1-MMP act inh	MT1-MMP act inh RFP	Yeast UUG start	CSC inhib	HIV Env fusion	others
Cc1cnc(NC(=O)CCNC(=O)c2ccc([N+](=O)[O-])cc2)s1	i	0	-8	-7	1	/	-7	25
CCOc1ccc(N2CC(C(=O)Nc3ccc4c(c3)OCCO4)CC2=O)cc1 (stereo unspecified)	i	8	-12	-2	1	-16	10	6
COc1cc(NC(=O)COc2ccccc2)c(OC)cc1NC(C)=O	i	-2	-12	2	1	-10	-13	2
CNC[C@@H](C)NC[C@@H](Cc1ccccc1)NCCc1ccccc1	i	1	-6	7	2	-14	27	/
COC(=O)C1=C(C)N(Cc2ccco2)C(=O)N[C@@H]1c1ccccc1	i	4	-1	-1	-3	-10	-7	-96
CN(C)c1ccc(/C=N/Nc2cccc(C(=O)O)c2)cc1	i	-4	-4	-5	0	-28	-2	43
CC(Sc1nnc(Cc2ccccc2)o1)C(=O)Nc1ccccc1[N+](=O)[O-] (stereo unspecified)	/	/	/	-6	2	-18	-7	/
COC(=O)c1ccc(OCC2c3cc(OC)c(OC)cc3CCN2C(=O)c2ccco2)cc1 (stereo unspecified)	i	-12	2	-14	-6	/	/	/
Cc1ccc(CNC(=O)COc2ccccc2-c2ccccc2)cc1	i	-1	-5	1	-3	-18	3	16
CN1CCCN(C(=O)CC2(CC(=O)O)CCCC2)CC1	i	2	13	0	6	4	-1	9
COc1ccc(C(=O)CNc2ccccc2C#N)cc1	i	0	-3	1	3	11	-7	-3
Cc1ccc(C(=O)N2CCCC(CCC(=O)N3CCN(c4ccccn4)CC3)C2)s1 (stereo unspecified)	i	-4	6	2	-9	/	-6	9
CN(C)c1ccc(C(=S)N2CCN(C(=S)Nc3cccc4ccccc34)CC2)cc1	i	1	-16	-1	-2	/	5	25
CCCOC(=O)CSc1nnc(-c2cc(OC)c(OC)c(OC)c2)o1	i	-2	-5	7	3	-4	-10	/
O=C(O)c1cc(OCc2ccccc2)cc(OCc2ccccc2)c1	i	-8	-5	0	3	-18	10	7
O=C(NC1CCCCC1)C1Cc2ccccc2CN1S(=O)(=O)c1ccc(F)cc1 (stereo unspecified)	i	0	-1	0	-4	-17	22	/
CCOC(=O)/C=C1\SCC(=O)N1CC(=O)NC12CC3CC(CC(C3)C1)C2	i	-1	-1	-1	-3	5	-8	/
COC(=O)c1ccccc1NC(=O)c1cnn2cccnc12	i	76	10	-6	-1	-7	5	-8	eIF4H inh retest=-6;PABP polyA inh retest=7
O=C(CNC(=O)OCc1ccccc1)NC1CCCCCCC1	i	19	-3	-4	1	3	-16	-16
CCOC(=O)c1cc(-c2ccco2)nn1-c1ccc(C)cc1	i	44	2	-13	1	/	-5	19
Cc1ccc(NC(=O)CN(C)C(=O)CSc2ncc(C(F)(F)F)cc2Cl)cc1	i	4	-7	-3	-1	/	7	-32
CC(C)NC(=O)N(C)C[C@H]1OCc2cnnn2CCCC(=O)N([C@H](C)CO)C[C@H]1C	/	/	/	4	1	8&0	/	31
Cc1ccc(NC(=O)Cc2ncc(C(F)(F)F)cc2Cl)cc1Cl	i	7	-6	4	8	-14	-7	/
Cc1ccc2c(CN3CCN(CCO)CC3)cc(=O)oc2c1C	i	-7	-4	-4	-3	-10	-5	2
COc1cccc(CC2(CO)CCN(S(=O)(=O)c3ccc(OC)cc3OC)CC2)c1	i	3	0	1	0	-22	-7	16
SMILES	Rce1 inh	PABP polyA inh	eIF4H inh	MT1-MMP act inh	MT1-MMP act inh RFP	Yeast UUG start	CSC inhib	HIV Env fusion	others
COc1ccc(C(=O)O)cc1NC(=S)NC(=O)Cc1ccc(Cl)cc1	i	4	9	5	1	-8	-2	-13
CCN(CC)CCCNC(=O)CSc1nc(-c2ccc(F)cc2)cc(C(F)(F)F)n1	i	0	-8	3	3	-15	44	15
Cc1onc(-c2ccccc2)c1-c1nc2ccccc2c(=O)o1	i	4	2	-4	-12	1	1	-170
CCN(CC)CCn1c(NCc2cc(OC)ccc2OC)nc2ccccc21	i	23	6	-7	-5	-8	/	-78
O=C(NCc1cnc2ccccn12)C1CCC(=O)N(Cc2cccc(F)c2)C1 (stereo unspecified)	i	0	-2	1	0	-4	2	8
COCc1ccc(C(=O)Nc2ccccc2C(=O)NCc2cccnc2)cc1	/	8	6	0	1	-14	-13	2
O=C(c1cccc(OC2CCN(Cc3ccc(F)cc3)CC2)c1)N1CCCC1	i	3	3	0	0	2	/	13
CC(Nc1ccc(Cl)c(Cl)c1)C(=O)NN (stereo unspecified)	i	0	-4	1	7	-14	-5	-1
COc1ccc(C(=O)COC(=O)Cn2cnc3c2c(=O)n(C)c(=O)n3C)c(OC)c1	i	-17	-6	-1	2	-1	-7	51
CSc1cc(-c2ccccc2)n(C)c(=O)c1C#N	i	15	4	1	0	-3	-2	-5
COc1ccc(/C=N\N=C2/SC(CC(=O)O)C(=O)N2c2ccc(O)cc2)cc1 (stereo unspecified)	/	14	-3	-1	0	-13	1	4
COc1ccc(CC(=O)NNC(=S)Nc2ccc(Br)cc2)cc1	i	6	20	4	1	-28	-5	-38
O=C(CN(c1ccccc1)S(=O)(=O)c1ccccc1)N/N=C/c1ccc(OC2CSC2)cc1	i	-2	0	/	/	/	6	/
Cc1ccc(S(=O)(=O)N(C)c2ccc(C(=O)N3CCOCC3)cc2)cc1	i	-10	2	5	0	6	/	5
CSc1nnc(-c2ccc(NC(N)=S)cc2)o1	i	-2	-11	1	3	/	-3	-23
COc1cc(C(=O)NCc2nnc(SCC(=O)NCc3ccccc3)o2)cc(OC)c1OC	i	-3	3	-3	6	-6	-10	/
Nc1ccc(N=Nc2ccccc2)cc1[N+](=O)[O-]	/	/	/	6	2	4	/	-111
O=C(O)C1C2C=CC(C2)C1C(=O)NCc1ccc(Cl)cc1Cl (stereo unspecified)	i	-2	5	-3	-7	-5	-12	-2
O=C(Cc1ccc(Cl)cc1)Nc1ccc(S(=O)(=O)Nc2cnc3ccccc3n2)cc1	i	15	-1	2	0	/	-4	4
Cc1ccc(NC(=O)C2COc3ccccc3O2)nc1 (stereo unspecified)	i	3	1	-1	1	-13	1	/
CC(OCc1ccccc1)C(NC(=O)OC(C)(C)C)C(=O)NCC1CCCO1 (stereo unspecified)	i	-3	-5	-1	-3	-8	-7	-33
COc1ccc(C(O)c2ncc(-c3ccccc3Cl)[nH]2)cc1F (stereo unspecified)	/	/	/	8	-1	-11	/	25
COC(=O)N/N=C/c1cn(CCOc2ccccc2OC)c2ccccc12	i	1	-7	1	-5	-13	-6	0
CN(C)CCCNC(=O)C(=O)Nc1cc2c3c(c1)CC(=O)N3CCC2	i	5	6	4	6	-9	-6	-14
CCN(C(=O)CN1C(=O)/C(=C/c2ccccc2F)SC1=S)C1CCS(=O)(=O)C1 (stereo unspecified)	i	3	-6	4	3	-1	-2	-12
SMILES	Rce1 inh	PABP polyA inh	eIF4H inh	MT1-MMP act inh	MT1-MMP act inh RFP	Yeast UUG start	CSC inhib	HIV Env fusion	others
CCOc1ccc(CNc2ncnc(N)n2)cc1	i	1	6	1	1	-18	-16	/
O=C(NC1CCCc2ccccc21)C1CCC(CNc2c(N3CCOCC3)c(=O)c2=O)CC1 (stereo unspecified)	/	-7	-7	2	7	-9	1	1
CCN1CCCC1CNC(=O)c1cc(S(N)(=O)=O)ccc1OC (stereo unspecified)	i	/	/	3	4	-10	-7	22
O=c1c2ccccc2sn1-c1ccc(S(=O)(=O)N2CCCCC2)cc1	i	/	/	8	-1	-9	-7	/
O=C(CNC(=O)C1COc2ccccc2O1)N/N=C/c1ccc(O)cc1O (stereo unspecified)	i	-6	12	1	-3	/	78*	19
CCN(Cc1ccncc1)Cc1cn[nH]c1-c1ccc(OC)cc1F	i	1	1	2	-4	/	-2	4
CCCOC(=O)c1ccc(OCC(O)CN2CCN(C(=O)c3ccccc3)CC2)cc1 (stereo unspecified)	i	-5	-4	2	3	/	7	/
C/C(CC(=O)NC12CC3CC(CC(C3)C1)C2)=N\NC(=O)c1ccc(F)cc1	i	-2	6	-1	2	-18	-15	-11
CC(C)(C)c1ccc(C(=O)NCC(=O)OCC(=O)c2ccc3c(c2)-c2ccccc2C3)cc1	i	-3	2	1	4	/	1	27
Cc1nnc(Sc2c(N)n(C)c(=O)n(C)c2=O)s1	i	19	10	5	6	-8	-4	-26
CC(=O)C(C(c1ccccc1)N1CCOCC1)N1CCOCC1 (stereo unspecified)	/	/	/	3	4	-15	/	1
Cc1nn(CC(=O)NCCc2ccccc2)c(=O)c2cccn12	i	-12	6	0	2	-6	-8	5
Cc1ccc(-n2nc3c(=O)n(CCCC(=O)NCc4ccc(C)o4)nc(C)c3c2C)cc1	i	/	/	10	2	1	3	8
O=C(O)CSCc1nc2ccccc2s1	i	14	2	-1	0	-7	-8	-61
O=C(N[C@H]1CC[C@H](CCNC(=O)C2CC2)O[C@@H]1CO)c1ccccn1	/	/	/	-2	2	-9	/	-1[16.7 µM]
Cn1c(Cn2cnc3ccccc32)nnc1SCc1ccccc1	i	-7	-6	2	-3	-30	-1	4

Structural class: those above containing an aryl thioether with sulfur outside any ring (nine)
SMILES	Rce1 inh	PABP polyA inh	eIF4H inh	MT1-MMP act inh	MT1-MMP act inh RFP	Yeast UUG start	CSC inhib	HIV Env fusion	others
CC(Sc1nnc(Cc2ccccc2)o1)C(=O)Nc1ccccc1[N+](=O)[O-] (stereo unspecified)	/	/	/	-6	2	-18	-7	/
CCCOC(=O)CSc1nnc(-c2cc(OC)c(OC)c(OC)c2)o1	i	-2	-5	7	3	-4	-10	/
Cc1ccc(NC(=O)CN(C)C(=O)CSc2ncc(C(F)(F)F)cc2Cl)cc1	i	4	-7	-3	-1	/	7	-32
CCN(CC)CCCNC(=O)CSc1nc(-c2ccc(F)cc2)cc(C(F)(F)F)n1	i	0	-8	3	3	-15	44	15
CSc1cc(-c2ccccc2)n(C)c(=O)c1C#N	i	15	4	1	0	-3	-2	-5
CSc1nnc(-c2ccc(NC(N)=S)cc2)o1	i	-2	-11	1	3	/	-3	-23
COc1cc(C(=O)NCc2nnc(SCC(=O)NCc3ccccc3)o2)cc(OC)c1OC	i	-3	3	-3	6	-6	-10	/
Cc1nnc(Sc2c(N)n(C)c(=O)n(C)c2=O)s1	i	19	10	5	6	-8	-4	-26
Cn1c(Cn2cnc3ccccc32)nnc1SCc1ccccc1	i	-7	-6	2	-3	-30	-1	4
